# Screens (PubChem BioAssay)
# 2A firefly = lowers the firefly signal of an FMDV 2A StopGo reporter. Potency, µM (series often up to 57.5 µM), for the others: top-dose signal change, negative = less light. HEK cells with a luciferase reporter of 2A StopGo recoding. AID 1745856. actives 0.23% (n = 120,000); active = well fitted falling curve with a large enough effect; inconclusive = small, poorly fitted or top-dose-only effect; inactive = no such curve, though single readings can be large or run the other way; also: nearly all actives have a fitted effect of over 60% in size; overnight with compound
# StopGo RLuc = lowers the Renilla signal of an FMDV 2A StopGo reporter | HEK cells with a luciferase reporter of 2A StopGo recoding | Potency, µM (series often up to 57.5 µM), inactives show top-dose signal change, negative = less light | actives 0.32% (n = 120,000) | AID 1745857; active means well fitted falling curve with a large enough effect; inconclusive means small, poorly fitted or top-dose-only effect; inactive means no such curve, though single readings can be large or run the other way; also: nearly all actives have a fitted effect of over 55% in size; overnight with compound
# Active calls of the source: *; ? = inconclusive; & = joins results of further samples; [ ] = remark or other dose. % is scaled to controls: 0 for no effect and ±100 for the full control effect; potency is read from the fitted curve at half-maximal effect. Not all compounds are listed; rates above refer to the full screens.
SMILES,2A firefly,StopGo RLuc
O=C1CSc2ccc(S(=O)(=O)Nc3ccccc3Cl)cc2N1,-3%,122%[activator]
Cc1ccc(Cl)cc1N1CCN(S(=O)(=O)c2ccc3c(c2)C(C(C)C)C(=O)N3)CC1 (centres undefined),?,-31%
Cc1ccc(-c2nc(C#N)c(N3CCOCC3)o2)cc1,27%,-7%
Cc1ccc(CSc2oc(-c3ccco3)nc2S(=O)(=O)c2ccc(Br)cc2)cc1,-17%,2%
COC(=O)c1ccccc1NC(=O)C1=C(C)C(=O)OC12CCC(C)CC2 (centres undefined),0%,6%
Cc1cc(C)c2c(=O)cc(C(=O)NCCc3ccc(S(N)(=O)=O)cc3)oc2c1,4%&-1%,-1%&-10%
Cc1cccc(NC(=O)CSc2cn(CC(=O)N3CCOCC3)c3ccccc23)c1C,-7%,-3%
CCOc1ccccc1NC(=O)c1ncoc1-c1cccc(C)c1,14%,2%
O=C(NCCNC(=O)c1cc(-c2ccncc2)nc2ccccc12)c1ccco1,34%[activator],32%[activator]
C[C@@H]1C[C@H](C)CN(C(C(=O)O)c2cn(C)c3ccc(C(=O)O)cc23)C1 (some centres undefined),69%[activator],74%[activator]
COC(=O)c1cc2sccc2n1Cc1nc(-c2cccc(Cl)c2)oc1C,-6%,-10%
O=C(Nc1ccc(Cl)c(C(F)(F)F)c1)c1cccc(I)c1,?,?
Cc1cccc(C)c1Nc1c(-c2ccsc2)nc2ccc(Cl)cn12,-23%,-5%
O=C(NCc1nnc2n1CCC2)Nc1ccccc1,13%,5%
O=c1cc(CN2CCN(S(=O)(=O)c3ccccc3)CC2)nc2sc(-c3ccccc3Cl)nn12,-7%,1%
O=C(Cn1nc(-c2ccccc2)ccc1=O)N1CCc2ccccc2C1,-10%,-22%
CCN(CC)S(=O)(=O)c1ccc(NC(=O)NCc2noc3ccc(C)cc23)cc1,-23%,50%[activator]
COc1ccc(Cc2nc3ccc(C(=O)NCc4ccc(OC)cc4OC)cc3o2)cc1,?,?
Cc1oc(-c2nc(C#N)c(NCCCN(C)C)o2)cc1S(=O)(=O)N1CCCC1,5%,-5%
CCN1C(=O)C(Cc2cc(OC)ccc2OC)c2ccccc21 (centres undefined),0%,50%[activator]
Cc1ccc(OCC(=O)N(Cc2ccco2)Cc2ccco2)cc1C,0%,39%[activator]
CCc1nnc(NC(=O)CCc2ccc(-c3ccc(C)cc3)o2)s1,3%,-11%
CC(=O)c1sc2c(c1C)c(=O)n(-c1ccc(Cl)cc1)c(=O)n2Cc1ccc(Cl)cc1,-16%,8%
CCc1cccc(C)c1NC(=O)COC(=O)c1ccc(C2Nc3ccccc3S(=O)(=O)N2)cc1 (centres undefined),16%,6%
COc1ccc(-c2oc3ncn4nc(COc5cccc(C)c5C)nc4c3c2-c2ccc(OC)cc2)cc1,-15%,-19%
Cc1ccc(CS(=O)(=O)c2ncc(Cl)c(C(=O)Nc3nnc(C(C)C)s3)n2)cc1,15%,-6%
CC(C)[C@@H]1NC(=O)[C@H]2C[C@@]3(C)c4ccccc4N[C@H]3N2C1=O,-7%,-4%
Cc1nnc(CSc2nnc(Nc3ccccc3C)s2)o1,124%[activator],4%
CCCCC(CC)CNC(=O)c1ccc2c(=O)n(Cc3ccc(OC)cc3)c(=O)[nH]c2c1 (centres undefined),-24%,-11%
CCC(O)c1cc2c(cc1NC(=O)c1ccccc1F)OCCO2 (centres undefined),1%,6%
O=C1CC2(CCCCC2)C(=O)N1Cc1ncc(-c2ccccc2)o1,50%[activator],?
Cc1cccc2c1-c1sc(C(=O)N3CCN(c4cccc(Cl)c4)CC3)cc1CO2,-11%,-16%
CCCNc1c(NC(=O)CCc2ccccc2)c(=O)oc2ccccc12,-2%,13%
Cc1[nH]c2ccccc2c1/C=C(\C#N)C(=O)NC(C)C,64%[activator],11%
O=S(=O)(c1ccc2nc(N3CCN(c4ccccc4)CC3)ccc2c1)N1CCCCC1,-13%,-5%
Cn1c(=O)c2nc(Cl)n(Cc3ccc(Cl)cc3)c2n(C)c1=O,15%,-6%
COc1ccc(C(=O)/C=C/c2ccc(C)cc2)cc1,109%[activator],13%
COc1ccc(OCCNC(=O)Cc2n[nH]c(=O)c3ccccc23)cc1,5%,-10%
CN(C)C(CNC(=O)c1cc(=O)c2ccccc2o1)c1cccs1 (centres undefined),8%,21%
O=C(Nc1ccccc1O)c1cc(-c2cccnc2)nc2ccccc12,14%,6%
Nc1c(-c2nc3ccccc3[nH]2)c2ccccn2c1C(=O)c1ccc(Cl)cc1,-10%,-19%
CCOC(=O)c1ccccc1NC(=O)CCc1c(C)nc2c(c1C)c(=O)n(C)c(=O)n2C,-10%,-5%
C(#CCN1CCN(Cc2ccccc2)CC1)COCCOCc1ccccc1,7%,8%
Cc1nc(NC2CC2)sc1C(=O)NCc1ccncc1,3%,15%
CCOc1ccc(CNC(=O)c2ccc3c(c2)nnn3C2CCCC2)cc1,25%,-6%
Cc1ccc(-c2nc(CC(=O)N(C)CC(=O)Nc3ccc(F)cc3)cs2)c(C)c1,3%,38%[activator]
O=C(NCc1ccco1)c1cc(-c2ccncc2)nc2ccccc12,-14%,-18%
COc1ccccc1CCNC(=O)c1ccc(-c2nc(CSc3ccc(C)cc3)c(C)o2)cc1,-13%,-9%
CC(C)C(NC(=O)Cc1ccc(N2CCCC2=O)cc1)c1nc2ccccc2[nH]1 (centres undefined),41%[activator],19%
COc1ccc2c(c1)c1c(c(=O)n(-c3cccc(Cl)c3)c(=O)n1C)n2C,-13%,-10%
Cc1cccc(NC(=O)C(C#N)=C2CCCCC2)c1,239%[activator],0%
Cc1ccc2nc(C)cc(C(=O)N(C)C3CCS(=O)(=O)C3)c2c1 (centres undefined),12%,-2%
COc1ccccc1C(=O)OCc1cc(=O)n2c(C)csc2n1,11%,31%[activator]
Cc1c(Cl)cccc1NC(=O)c1cc(-c2cccc(Cl)c2)on1,27%,18%
CCOc1ccccc1CN1CCN(c2ccccc2)CC1,16%,4%
CCc1ccc(CNC(=O)CN2C(=O)CSc3ccc(S(=O)(=O)N4CCOCC4)cc32)cc1,-5%,10%
COCCOC(=O)Cn1nnc2sc(-c3ccccc3)cc2c1=O,-13%,-11%
Cc1ccc(C)c(N2CCN(C(=O)CCS(=O)(=O)c3cc4c(cc3Cl)NC(=O)CO4)CC2)c1,?,?
CC(NC(=O)C1CCCCC1C(F)(F)F)C12CC3CC(CC(C3)C1)C2 (centres undefined),-6%,6%
COc1ccccc1CNC(=O)c1cc2c(s1)-c1ccc(Cl)cc1SC2,0%,-10%

# 2 entries from above, with values under each structure:
# Second line of a record: 2A firefly	StopGo RLuc
> CCOc1ccc(CNC(=O)c2ccc3c(c2)nnn3C2CCCC2)cc1
  25%	-6%
> Cc1ccc(-c2nc(CC(=O)N(C)CC(=O)Nc3ccc(F)cc3)cs2)c(C)c1
  3%	38%[activator]

# Later entries
SMILES,2A firefly,StopGo RLuc
CCOc1ccc(C(=O)N(CCN(C)C)CC(=O)OC(C)(C)C)cc1,19%,7%
O=S(=O)(c1ccccc1)N1CCN(c2nc(-c3cccs3)nc3ccccc23)CC1,0%,-7%
CCOC(=O)c1cccc(NC(=O)CSc2nc3cc4ccccc4cc3[nH]2)c1,92%[activator],-1%
Cc1cc(C)c(C(=O)C(C)Oc2cccc(C#N)c2)cc1C (centres undefined),10%,4%
CC(C)c1ccc(NC(=O)C2CCN(S(=O)(=O)c3cccc4nsnc34)CC2)cc1,-8%,-5%
CCc1nc(N2CCN(C(=S)Nc3ccccc3)CC2)c(C#N)c2c1CSC(C)(C)C2,-15%,-13%
COC(=O)CCCn1c(C)cc(C(=O)COC(=O)c2nccnc2N)c1C,155%[activator],-4%
CC(=O)Nc1nonc1-c1nnc(SCc2ccccc2)n1C,22%,-8%
CC(CCc1ccccc1)NC(=O)CSc1n[nH]c(-c2ccc(F)cc2)n1 (centres undefined),?,?
CCC(C)NC(=O)c1[nH]c2cc(OC)ccc2c1Sc1ccc(C)cc1 (centres undefined),-7%,10%
CNC(=S)N/N=C/c1c(F)cccc1F,0%,6%
O=C1c2[nH]nc(-c3ccc(F)cc3)c2C(c2ccccc2F)N1c1ccccc1 (centres undefined),-20%,-9%
CC(C)C(NC(=O)CSc1ccccc1F)c1ccc2c(c1)OCCCO2 (centres undefined),0%,22%
Cc1nc(-c2cc3ccc(OCC(=O)NC4CC4)cc3oc2=O)cs1,76%[activator],-5%
Cc1ccccc1OCC(=O)OC1CCN(C)CC1,18%,-6%
O=C(CSc1nnc(-c2ccccn2)n1-c1ccc(Cl)cc1)Nc1ccc2c(c1)OCO2,19%,3%
CCOc1ccc(C(=O)c2cn(CC(=O)Nc3cc(OC)cc(OC)c3)c3ccc(F)cc3c2=O)cc1,-11%,-14%
COc1ccccc1N1C(=O)CCC1(C#N)c1ccccc1 (centres undefined),-10%,-6%
CC1(C)CC(NC(=S)Nc2ccc(SC(F)F)cc2)CC(C)(C)N1,11%,-2%
CCc1cccc(C)c1NC(=O)C(CC)Sc1nncn2c1cc1occc12 (centres undefined),-8%,-4%

# Three entries out of the list, arranged by count of non-hydrogen atoms, smallest number first.
SMILES,2A firefly,StopGo RLuc
CNC(=S)N/N=C/c1c(F)cccc1F,0%,6%
CC1(C)CC(NC(=S)Nc2ccc(SC(F)F)cc2)CC(C)(C)N1,11%,-2%
CCC(C)NC(=O)c1[nH]c2cc(OC)ccc2c1Sc1ccc(C)cc1 (centres undefined),-7%,10%

# One compound at a time, as listed above. Order of screens: 2A firefly, StopGo RLuc
# O=S(=O)(c1ccccc1)N1CCN(c2nc(-c3cccs3)nc3ccccc23)CC1 is listed with 0%, -7%
# CCc1nc(N2CCN(C(=S)Nc3ccccc3)CC2)c(C#N)c2c1CSC(C)(C)C2 is listed with -15%, -13%
# Cc1ccccc1OCC(=O)OC1CCN(C)CC1 is listed with 18%, -6%
# CC(CCc1ccccc1)NC(=O)CSc1n[nH]c(-c2ccc(F)cc2)n1 (centres undefined) is listed with ?, ?

# New compounds follow.
SMILES,2A firefly,StopGo RLuc
O=C(c1cn(CCCCn2cc(C(=O)C(F)(F)F)c3ccccc32)c2ccccc12)C(F)(F)F,1%,2%
Cc1ccc(C)c(NC(=O)Cn2c(=O)n(CCC(C)C)c(=O)c3cccnc32)c1,75%[activator],-8%
CC(=O)Nc1ccc(/C=C/c2noc(-c3ccccc3O)n2)cc1,0%,-3%
CC(C)CN(CCCNC(=O)Cn1ncc2c3ccccc3n(C)c2c1=O)CC(C)C,-5%,-9%
COc1cc(NC(=O)C2CCN(S(=O)(=O)c3c(C)noc3/C=C/c3ccccc3F)CC2)cc(OC)c1OC,-21%,1%
COc1ccc(-c2nc(CSCC(=O)NCc3ccccc3Cl)c(C)o2)cc1OC,27%,19%
Cc1ccc(S(=O)(=O)N2CC=C(c3c(C)n(CC(=O)N4CCCC4)c4ccccc34)CC2)cc1C,9%,105%[activator]
Cn1cc(S(=O)(=O)c2cccc(Cl)c2)c(=O)c2cc(F)c(N3CCN(c4ccccc4)CC3)cc21,-10%,0%
Cc1ccc(C(=O)NC(c2ccc(Cl)cc2)c2cccnc2)cc1 (centres undefined),4%,7%
